Sa growth 42C: S. aureus growth inhibition; S. aureus RN4220 growth, OD600, 20 h, 42 °C; hits give low values; relative growth, % (no concentration beside the values); 0.53% of 170,000 active; AID 720641;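 active = growth at 42 °C up to 50% and 20 or more points under that at 30 °C, or under 10% at both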;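 also: 300 nL library stock went into each well; scaled to the means of positive and negative controls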
GIV-Gai inh: GIV-Galpha-i interaction inhibition. P08753. Galpha-i3/FITC-GIV peptide fluorescence polarization, 90 min; hits give low values; scaled: aluminum fluoride 0%, vehicle 100%. percent of control (FP), % (test concentration not listed). 0.42% of 210,000 active;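 active = replicate mean at 85% of control or lower, very high polarization wells dropped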;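 also: wells of about 15 µL received 100 nL stock; the first replicate is given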
Target sequence (P08753 whole entry, looked up): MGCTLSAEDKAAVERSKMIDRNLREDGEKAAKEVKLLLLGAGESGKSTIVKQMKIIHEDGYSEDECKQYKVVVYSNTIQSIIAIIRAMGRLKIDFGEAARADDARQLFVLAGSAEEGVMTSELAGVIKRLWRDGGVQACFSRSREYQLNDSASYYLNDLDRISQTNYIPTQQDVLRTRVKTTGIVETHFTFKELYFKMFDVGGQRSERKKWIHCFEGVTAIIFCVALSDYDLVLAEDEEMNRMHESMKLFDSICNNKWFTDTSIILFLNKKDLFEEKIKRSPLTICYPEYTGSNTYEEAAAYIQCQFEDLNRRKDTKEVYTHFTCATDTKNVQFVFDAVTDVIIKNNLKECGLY
HCMV NEC inh: disrupts HCMV UL50-UL53 complex binding; HTRF UL50-UL53 interaction, normalized percent inhibition; inhibition, % (no concentration beside the values); 0.15% of 190,000 active;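 active = both replicates at 50% or more, plus weaker picks with an unusually low signal ratio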;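 also: stock transfer was 100 nL into about 20 µL; 0% = negative control wells and 100% = wells with untagged competitor protein; inactives centre near -12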
Sa growth 42C second temp: also measured in Sa growth 42C; calls as there; relative growth, %; measured here: growth at 30 °C;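 optical density after 20 h as mean of two plates; 100% = untreated growth and lower means inhibition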
An asterisk follows results filed as active; / = no result given; & = joins results of further samples. Hits appear at their usual frequency (roughly 0.8% active in at least one column).

| SMILES | Sa growth 42C | Sa growth 42C second temp | GIV-Gai inh | HCMV NEC inh |
| --- | --- | --- | --- | --- |
| CCOC(=O)C1=C(CSc2nnc3ccccn23)NC(=O)NC1c1cccs1 (configuration not stated) | 101 | 92 | / | -40 |
| O=C(O)c1cc(NC2(c3ccccc3)C(=O)c3ccccc3C2=O)ccc1Cl | 100 | 85 | 100 | / |
| C=CCN1C(=O)NC(C)(C)C1=O | 94 | 87 | 103 | -53 |
| COc1ccc(NC(=O)C2=CC(c3ccc(C)cc3)=NS(=O)(=O)N2C)cc1OC | / | / | 100 | -20 |
| COc1ccccc1NC(=O)CCn1cnc2ccccc2c1=O | 100 | 80 | 104 | / |
| O=C(NCCCN1CCN(c2ccc(F)cc2)CC1)c1cc(=O)n2c(nc3ccccc32)s1 | / | / | 99 | 8 |
| COc1ccc(-c2ccc(=O)n(CC(=O)Nc3ccc(OC)c(OC)c3)n2)cc1 | 113 | 85 | 105 | / |
| O=C(COC(=O)C1c2ccccc2Oc2ccccc21)NC1CC1 | 106 | 84 | / | -32 |
| CC1CCN(S(=O)(=O)c2ccc3c(c2)N(CC(=O)N2C(C)CCCC2C)C(=O)CS3)CC1 (configuration not stated) | / | / | 102 | -19 |
| CCOc1ccc(NC(=O)Cc2c[nH]c3ccccc23)cc1 | 102 | 84 | 103 | / |
| Cc1ccc(Cl)cc1NC(=O)C1CCN(c2nnc(C)c3c(C)n(-c4ccccc4)nc23)CC1 | 79 | 96 | 97 | / |
| CCOc1ccc(CN2C(=O)C(NC(C)=O)c3ccccc32)cc1 (configuration not stated) | 104 | 94 | 103 | / |
| Cc1cccc(C(=O)Nc2nc(-c3nnn(-c4cc(C)ccc4C)c3C)ns2)c1 | 110 | 92 | 106 | / |
| COc1ccc(/C=N/NC(=O)c2c(-c3ccccc3)noc2C)c(O)c1 | 100 | 107 | 99 | -11 |
| CCc1ccc(NC(=O)N2CCc3nc(-c4ccc(C)cc4)sc3C2)cc1 | / | / | 97 | 1 |

Single records (already shown).
Profile of COc1ccc(NC(=O)C2=CC(c3ccc(C)cc3)=NS(=O)(=O)N2C)cc1OC → Sa growth 42C: /; Sa growth 42C second temp: /; GIV-Gai inh: 100; HCMV NEC inh: -20
Profile of COc1ccc(/C=N/NC(=O)c2c(-c3ccccc3)noc2C)c(O)c1 → Sa growth 42C: 100; Sa growth 42C second temp: 107; GIV-Gai inh: 99; HCMV NEC inh: -11

More structures:
| SMILES | Sa growth 42C | Sa growth 42C second temp | GIV-Gai inh | HCMV NEC inh |
| --- | --- | --- | --- | --- |
| COc1ccc(NC(=O)CSc2nnc(C)n3c2cc2sccc23)cc1 | 123 | 78 | 96 | / |
| CCn1c(SCCOc2ccccc2)nc2ccccc21 | 106 | 103 | 100 | -4 |
| Cc1ccc(NS(=O)(=O)c2ccc3oc(=O)c4ncn(C)c4c3c2)cc1 | 94 | 88 | 96 | -6 |
| CC1CCN(S(=O)(=O)c2cn(C)c(=O)n(C)c2=O)CC1 | 91 | 87 | 97 | -41 |
| CC1=NN(c2nc(C)cc(C)n2)C(=O)C1C (configuration not stated) | / | / | 95 | -19 |
| O=C(O)CCn1cnc2onc(-c3ccccc3Cl)c2c1=O | 98 | 84 | 99 | -23 |
| CC1N(C)c2cc(NC(=O)c3cccs3)ccc2C1(C)C (configuration not stated) | 90 | 37 | / | -33 |
| Cc1ccc(N2C(=O)CC(SCC(=O)Nc3ccccc3)C2=O)cc1 (configuration not stated) | 66 | 56 | 106 | -14 |
| CNC(=O)CCCc1nnc2n(CCC(C)C)c(=O)c3sccc3n12 | 104 | 94 | 100 | -26 |
| CCCC(=O)Nc1nnc(S(=O)(=O)N2CCCCCC2)s1 | 112 | 86 | 104 | -14 |
| COc1ccccc1-c1nnc(C2CCN(S(=O)(=O)c3ccc(C)cc3)CC2)o1 | 105 | 78 | 106 | -1 |
| CN(C)S(=O)(=O)c1ccc(SCC(=O)N(CC2CCCO2)C2CCS(=O)(=O)C2)nc1 (configuration not stated) | 70 | 84 | / | -26 |
| O=S(=O)(NCC(c1ccccc1)N1CCOCC1)c1ccccc1 (configuration not stated) | 108 | 89 | 103&104 | -2&-15 |
| CCOC(=O)[C@@H]1Nc2c(ccc(C(=O)O)c2C)[C@@H]2C=CC[C@H]12 | 85 | 76 | 106 | -5 |
| COc1cc2c(=O)c(S(=O)(=O)c3ccc(F)cc3)cn(Cc3ccccc3C)c2cc1OC | 111 | 92 | 106 | -20 |

Limited to Sa growth 42C second temp, for 2 of the compounds above:
SMILES	Sa growth 42C second temp
CCCC(=O)Nc1nnc(S(=O)(=O)N2CCCCCC2)s1	86
COc1ccccc1-c1nnc(C2CCN(S(=O)(=O)c3ccc(C)cc3)CC2)o1	78

Following part:
| SMILES | Sa growth 42C | Sa growth 42C second temp | GIV-Gai inh | HCMV NEC inh |
| --- | --- | --- | --- | --- |
| CC1(C)C2CC=C(/C=C(\C#N)c3nc4ccccc4[nH]3)C1C2 (configuration not stated) | 81 | 58 | / | -19 |
| Cc1ccccc1Nc1c(-c2ccc(O)cc2)nc2c(C)cccn12 | 111 | 94 | 95 | -10 |
| CCCCc1nccn1CCn1ccnc1CCCC | 81 | 83 | 105 | -25 |
| CCCCn1nc(C(=O)NC2CCCCCC2)c2ccccc2c1=O | 102 | 100 | / | 2 |
| S=C(c1cccc(OCc2ccccc2)c1)N1CCCCC1 | 81 | 89 | 102 | / |
| COc1ccc(-c2csc(-c3nc(-c4ccc(Cl)cc4)cs3)n2)cc1OC | / | / | 101 | -3 |
| Cc1ccc(OCC(=O)N(c2ccccn2)C2CCCCC2)c(C)c1 | 127 | 95 | / | 0 |
| O=C(CCN1C(=O)/C(=C\c2cccs2)SC1=S)Nc1cc(Cl)ccc1O | / | / | 124 | -42 |
| COc1ccc(CNC(=S)Nc2ccccc2)cc1 | 95 | 81 | 99 | / |
| COc1ccc(C(=O)/C=C/c2cn(CC(O)CN3CCCCCC3)c3ccccc23)cc1OC (configuration not stated) | 103 | 78 | 132 | -8 |
| CN(C(=O)CSc1nc2ccccc2n1CC(=O)NCc1ccc(F)cc1)c1ccc(F)cc1 | 122 | 98 | 99 | / |
| SCc1nc2c3ccccc3ncn2n1 | 59 | 58 | / | -67 |
| O=S(=O)(Nc1cccnc1)c1cc(C(F)(F)F)cc(C(F)(F)F)c1 | 107 | 65 | 98 | -4 |
| COC(=O)CNC(c1ccccc1)c1cc(Br)ccc1NC(=O)c1ccccc1 (configuration not stated) | 89 | 79 | 99 | -38 |
| Cc1ccc(NC(=O)CSc2nc3ccccc3c3nc(CCn4cncc4C)nn23)c(C)c1 | 100 | 81 | 103 | / |

Among those listed so far, these contain fluorine.
| SMILES | Sa growth 42C | Sa growth 42C second temp | GIV-Gai inh | HCMV NEC inh |
| --- | --- | --- | --- | --- |
| O=C(NCCCN1CCN(c2ccc(F)cc2)CC1)c1cc(=O)n2c(nc3ccccc32)s1 | / | / | 99 | 8 |
| COc1cc2c(=O)c(S(=O)(=O)c3ccc(F)cc3)cn(Cc3ccccc3C)c2cc1OC | 111 | 92 | 106 | -20 |
| CN(C(=O)CSc1nc2ccccc2n1CC(=O)NCc1ccc(F)cc1)c1ccc(F)cc1 | 122 | 98 | 99 | / |
| O=S(=O)(Nc1cccnc1)c1cc(C(F)(F)F)cc(C(F)(F)F)c1 | 107 | 65 | 98 | -4 |

Further records follow:
| SMILES | Sa growth 42C | Sa growth 42C second temp | GIV-Gai inh | HCMV NEC inh |
| --- | --- | --- | --- | --- |
| COc1ccc(C2CC(=O)C3=C(C2)Nc2onc(C)c2C3c2cccnc2)cc1 (configuration not stated) | / | / | 107 | -22 |
| C=CCn1c(SCC(=O)Nc2cc(C(=O)OC)cc(C(=O)OC)c2)nc2sc3c(c2c1=O)CCC3 | / | / | 110 | -2 |
| CC(Nc1ccc(Cl)cc1)C(=O)N/N=C/c1ccc2c(c1)OCO2 (configuration not stated) | 81 | 82 | 102 | -30 |
| COCc1nn2cc(-c3ccc(C)cc3C)nc2s1 | 116 | 102 | 102 | 6 |
| CCN(C(=O)Cn1cc(S(=O)(=O)Cc2ccccc2)c2ccccc21)c1ccccc1 | / | / | 114 | -2 |
| CC(C)NC(=O)c1cc(-c2ccco2)nn1-c1ccc(Cl)cc1 | 86 | 89 | / | 9 |
| O=S(=O)(NCc1cccnc1)c1ccc2[nH]c3c(c2c1)CCCC3 | 98 | 81 | 98&108 | -5&-2 |
| CCNC(=S)N/N=C/c1ccccc1OC(C)C | 98 | 95 | / | -17 |
| O=C(O)CCCCCN1CCN(c2ccccc2)CC1 | 93 | 92 | 111 | -18 |
| CN(C)c1ccc(CNC(=O)c2ccc(NC(=O)N3CCCCc4ccccc43)cc2)cc1 | 144 | 99 | 104 | / |
| O=C(NCc1ccccc1)NC1CCS(=O)(=O)C1 (configuration not stated) | 94 | 96 | 110 | / |
| O=c1oc(-c2ccccc2)nc2c(Br)cc(Br)cc12 | 105 | 104 | 105 | / |
| CC1CCCc2sc3nc(SCC(=O)c4ccc(Br)cc4)nc(N)c3c21 (configuration not stated) | 107 | 87 | 105 | -29 |
| O=C1CC(c2cccc(Br)c2)Nc2ccc3ccccc3c21 (configuration not stated) | 105 | 88 | 103 | / |
| CC(C)C(NS(=O)(=O)c1ccc2c(c1)CCCC(=O)N2)C(=O)Nc1ccc(Cl)cc1 (configuration not stated) | / | / | 108 | -1 |
| C=C1C(C(=O)N2CCCC2)C1C(=O)N1CCCC1 (configuration not stated) | 88 | 83 | / | -16 |
| Cc1cc2nc(CSc3ccccc3)cc(=O)n2o1 | 104 | 90 | 100 | -10 |
| Cc1ccc(C)c(NC(=O)NCCCn2c(-c3ccncc3)nc3cccnc32)c1 | / | / | 103 | 1 |
| COc1ccccc1OCC(=O)Nc1ccccc1C(=O)NCc1cccnc1 | 97 | 67 | 99 | / |
| CCOC(=O)N1CCC2(CC1)OC(=O)C(C)=C2C(=O)N1CCCC1 | 104 | 88 | 105 | -20 |
| O=C(CCNS(=O)(=O)c1ccccc1)NC12CC3CC(CC(C3)C1)C2 | 92 | 78 | / | -10 |
| CCCn1c(SCC(O)c2ccccc2)nc2ccccc21 (configuration not stated) | 101 | 86 | 102 | -36 |
| CCOc1ccc(Nc2nc(C)c(NC(=O)Cc3ccc(OC)cc3)c(Nc3ccc(OCC)cc3)n2)cc1 | / | / | 98 | -10 |
| CC(C)(C)NC(=O)C[n+]1cccc(/C=N/O)c1 | 105 | 96 | 99 | / |
| Cc1oc(-c2cc(Cl)ccc2Cl)cc1C(=O)NC(C)C | 91 | 85 | 101 | / |
| CCCn1c(N)c(C(=O)CN2CCCCC2)c(=O)[nH]c1=O | 85 | 93 | / | 0 |
| Cc1ccc(CN2CCN(C3CCN(C(=O)C(C)C)CC3)C(=O)C2=O)cc1 | / | / | 96 | 3 |
| C=CCn1c(=O)c(C(=O)Nc2ccccc2C)c(O)c2ccccc21 | / | / | 105 | -16 |
| O=C(Nc1ccc(Cl)c(Cl)c1)N(CCCN1CCOCC1)Cc1cccnc1 | 112 | 84 | 101 | / |
| COc1ccc(N=c2oc3c(C)ncc(CO)c3cc2C(=O)Nc2ccc3c(c2)OCO3)cc1 | 93 | 94 | 104 | -4 |
| CCOC(=O)C1CCCN(C(=O)c2ccccc2OCc2ccccc2)C1 (configuration not stated) | 96 | 81 | / | -29 |
| O=C(CCCCl)N1CCOCC1 | 99 | 103 | / | 24 |
| C/C(=C\c1ccccc1)CN1CCC(C(N)=O)CC1 | 80 | 106 | 106 | -6 |

Retrieved by compound from the list above, 2 records:
| SMILES | Sa growth 42C | Sa growth 42C second temp | GIV-Gai inh | HCMV NEC inh |
| --- | --- | --- | --- | --- |
| CCOc1ccc(Nc2nc(C)c(NC(=O)Cc3ccc(OC)cc3)c(Nc3ccc(OCC)cc3)n2)cc1 | / | / | 98 | -10 |
| CCCn1c(N)c(C(=O)CN2CCCCC2)c(=O)[nH]c1=O | 85 | 93 | / | 0 |
